Compound activity as filed in PubChem.
SARS PLpro yeast: blocks SARS-CoV papain-like protease in a yeast assay; S. cerevisiae expressing SARS-CoV PLpro, growth rescue; control for the full effect not named in the record; Potency, µM (doses to about 32.9 µM), without a hit: at the highest dose activity, positive = growth rescue; 0.19% of 330,000 active; AID 485353; note: 0% is about no effect; nearly all actives have a fitted effect of over 55% in size; growth read by luminescence after 48 h
RE007 growth inh: less growth of the S. pombe RE007 Vpr strain | S. pombe RE007 Vpr strain, BacTiter-Glo ATP luminescence, 24 h; control for the full effect not named in the record | Potency, µM (highest dose often 92.2 µM), inactives show at the highest dose activity change, negative = less growth | 0.21% of 360,000 active; active = well fitted falling curve with a large enough effect; inconclusive = small, poorly fitted or top-dose-only effect; inactive = no such curve, though single readings can be large or run the other way;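 note: % is set by controls: 0 for no effect and ±100 for the full control effect; nearly all actives have a fitted effect of over 50% in size; the assay follows cell death caused by Vpr and the record does not say whether a fall means rescue or toxicity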
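Fission yeast strain RE007, carrying one chromosomally integrated HIV-1 vpr copy, was seeded at OD 0.01 in PMG+AL medium with 23 nL pinned compound. After 24 h at 30 °C and 99% humidity, viability was read by BacTiter-Glo luminescence.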
NS1 function inh: inhibitors of influenza NS1 protein function; S. cerevisiae slowed by influenza A NS1, growth recovery by OD600; Potency, µM (top dose mostly 46.1 µM), inactives show top-dose activity, positive = more growth; 0.4% of 270,000 active; note: actives are rising curves; nearly all actives have a fitted effect of over 50% in size
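OD600 was taken as the measure of yeast growth restored by compound in an NS1-expressing S. cerevisiae strain. Cells had been washed out of glucose medium and diluted 1:100 into galactose -URA medium, pH 6.0.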
Lassa entry inh: Lassa virus entry inhibition; 1.2% of 300,000 active; Potency, µM (titrated, usually from 37.9 µM), inactives show at the highest dose activity change, negative = inhibition, hits mostly inhibitors; Lassa virus pseudotype entry inhibition, cell reporter; control for the full effect not named in the record; active means well fitted inhibition curve with a large enough effect; inconclusive means small, poorly fitted or top-dose-only effect, or effect the other way; inactive means flat fitted curve, though single readings scatter; tested in HEK293 cells; note: % is set by controls: 0 for no effect and ±100 for the full control effect; nearly all actives have a fitted effect of over 50% in size; luciferase read-out
Cruzain noTriton: blocks cruzain activity in detergent-free assay. 2.3% of 200,000 active. AID 1476. purified cruzain, Z-FR-AMC fluorescence, no detergent. Potency, µM, for inactives: max response, negative = inhibition, usual class: inhibitors. P25779; active = well fitted curve in the direction sought with a large enough effect; inconclusive = small, poorly fitted or top-dose-only effect, or another doubt; inactive = no such curve, though single readings can be large; an effect the other way counts as inactive or inconclusive;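 note: plate controls were enzyme without inhibitor for no effect and buffer without enzyme for full effect; nearly all actives have a fitted effect of over 40% in size; top concentration of the series not given in the record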
Target sequence (P25779 123-467 limits assumed): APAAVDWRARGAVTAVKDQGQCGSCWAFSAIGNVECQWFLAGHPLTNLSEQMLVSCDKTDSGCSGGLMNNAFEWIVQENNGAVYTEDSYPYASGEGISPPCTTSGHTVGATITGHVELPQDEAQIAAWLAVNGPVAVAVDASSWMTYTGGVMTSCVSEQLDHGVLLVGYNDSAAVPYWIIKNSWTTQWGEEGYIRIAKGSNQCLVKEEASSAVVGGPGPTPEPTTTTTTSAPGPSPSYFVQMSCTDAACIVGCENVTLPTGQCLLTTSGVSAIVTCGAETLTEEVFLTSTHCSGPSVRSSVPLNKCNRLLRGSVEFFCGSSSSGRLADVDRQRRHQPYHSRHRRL
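Detergent-free condition (0.00005% Triton X-100) in acetate buffer pH 5.5 with DTT. 1.5 nM enzyme and compound were pre-mixed 15 min, then 2 uM Z-FR-AMC substrate added; reaction progress from fluorescence change between first and third reads (60 s).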
Cruzain Triton: cruzain (T. cruzi) inhibition with detergent; 0.43% of 200,000 active; P25779; purified cruzain, Z-FR-AMC fluorescence, 0.01% Triton; AID 1478; Potency, µM, for the others: max response, negative = inhibition, hits mostly inhibitors; active = well fitted curve in the direction sought with a large enough effect; inconclusive = small, poorly fitted or top-dose-only effect, or another doubt; inactive = no such curve, though single readings can be large; an effect the other way counts as inactive or inconclusive;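 note: plate controls were neutral wells for no effect and buffer without enzyme for full effect; nearly all actives have a fitted effect of over 40% in size; top concentration of the series not given in the record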
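Sodium acetate buffer (100 mM, pH 5.5) containing 5 mM DTT and 0.01% Triton X-100 hosted 1.5 nM cruzain and test compound for 15 min at room temperature. Cleavage of 2 uM Z-FR-AMC was then tracked by fluorescence.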
StopGo reporter: FMDV 2A StopGo reporter, luciferase signal. human cells with a luciferase reporter of 2A StopGo recoding; control for the full effect not named in the record. Potency, µM (top dose mostly 57.9 µM), for the others: at the highest dose signal change, negative = less light. 1.2% of 410,000 active; active = well fitted falling curve with a large enough effect; inconclusive = small, poorly fitted or top-dose-only effect; inactive = no such curve, though single readings can be large or run the other way; tested in HEK293T cells; note: % is set by controls: 0 for no effect and ±100 for the full control effect; nearly all actives have a fitted effect of over 45% in size; luciferase light after 4 h
MARV entry inh: blocks Marburg virus binding to or entry into cells; Marburg virus pseudotyped entry inhibition, cell reporter; control for the full effect not named in the record; about a third of the inactives were read at about 46 µM; Potency, µM (highest dose often 37.8 µM), without a hit: at the top dose activity change, negative = inhibition, hits mostly inhibitors; 1.8% of 300,000 active; active = well fitted inhibition curve with a large enough effect; inconclusive = small, poorly fitted or top-dose-only effect, or effect the other way; inactive = flat fitted curve, though single readings scatter; tested in HEK293 cells; about a fifth of its hits are not listed in these tables; note: % is set by controls: 0 for no effect and ±100 for the full control effect; luciferase read-out
The depositor's hits bear a star; ? = inconclusive; · = no result given; [ ] = remark or other dose. Unless noted, calls come from the whole dose curve; as a rule, active means well fitted rising curve with a large enough effect; inconclusive means small, poorly fitted or top-dose-only effect; inactive means no such curve, though single readings can be large or run the other way. Potency is the fitted concentration of half-maximal effect.

Molecule	SARS PLpro yeast	RE007 growth inh	NS1 function inh	Lassa entry inh	Cruzain noTriton	Cruzain Triton	StopGo reporter	MARV entry inh
O=C(CN(Cc1ccccc1)C(=O)CCC(=O)Nc1ccccn1)NCCc1ccccc1	0.3%	-2.8%	10.3%	-18.6%	·	·	7.1%	0.7%[46.1 µM]
COc1ccc(OC(=O)c2nc(SCc3ccc(C)cc3)ncc2Cl)cc1	·	·	·	19.7%[46.1 µM]	20µM*	-1.4%	-0.9%	-4.6%[46.1 µM]
Cn1cc(/C=C/c2nc3ccccc3c(=O)n2-c2cccc([N+](=O)[O-])c2)c2ccccc21	-4.9%	-1.7%	22.1%	4.1%	10µM*	-6.0%	-19.2%	-30.0%
CCN(CC)Cc1ccc(NC(=O)c2sc3cc(Cl)ccc3c2Cl)cc1	-2.7%	28.2µM*	6.5%	?	·	·	?	?
COc1cccc(-c2noc(CCC(=O)Nc3cccnc3)n2)c1	-0.1%	-1.5%	-11.7%	13.1%	1.9%	-2.5%	-18.6%	5.9%
COc1ccc(N2CCN(C(=O)COC(=O)CNC(=O)c3ccc(C)cc3)CC2)cc1	1.4%	15.1%	·	19.3%	·	·	-10.0%	?
COCCn1c(=O)sc2ccccc2c1=O	2.3%	-22.8%	·	-8.8%	·	·	5.2%	-8.8%[14.2 µM]
Cc1ccccc1NC(=S)NC(=O)c1cncc(Br)c1	11.2%	-21.5%	23.0%	?	-10.4%	-8.0%	-11.4%	?
CCn1ncc(C(=O)Nc2cccc(Cl)c2)c1C	-37.9%	-9.0%	-29.0%	?	11.2%	-4.0%	77.8%[activator]	-4.5%
COc1cccc(/C=N/NC(=O)CCn2c3ccccc3c3ccccc32)c1	18.4%	16.0%	-1.0%	·	-18.8%	-9.1%	-24.9%	·
COc1ccc2ccccc2c1CNC(=O)CC1C(=O)NCCN1CC(C)(C)C (stereo not given)	-0.1%	-0.5%	3.5%	·	·	·	16.1%	·
COc1ccc(NC(=S)NC(=O)/C=C/c2ccccc2)cc1	2.6%	-3.5%	10.2%	-15.1%[46.1 µM]	·	·	-1.4%	-26.6%[46.1 µM]
COc1ccc(OC)c(S(=O)(=O)N2C(C)CCCC2C)c1 (stereo not given)	4.8%	14.6%	2.1%	2.0%	-8.6%	0.9%	16.5%	15.7%[46.1 µM]
CCOCCCN(C)C1CCN(C(=O)c2oc3ccccc3c2NC(=O)c2ccc([N+](=O)[O-])cc2)CC1	-1.7%	-3.2%	-5.4%	-17.7%[46.1 µM]	·	·	54.9%[activator]	?
CCn1c(CNC(=O)c2cccc(C)c2)nnc1SCC(=O)N1CCOCC1	·	2.3%	2.3%	-5.5%	·	·	-8.8%	?
COc1cc(C)c(Cl)c(C)c1S(=O)(=O)NCc1ccc2c(c1)OCO2	-9.3%	2.9%	-8.2%	1.7%	-3.2%	-4.5%	49.0%[activator]	28.3%[46.1 µM]
CN(Cc1ccccc1)CC(O)COc1ccc(CNCCc2cccnc2)cc1 (stereo not given)	0.3%	-2.2%	1.5%	·	·	·	1.4%	·
Cc1cc(C)n(CCOc2ccc(Cl)cc2Cl)n1	-13.1%	6.6%	-9.9%	-6.8%	8.1%	-5.3%	-0.1%	?
CCOC(=O)/C=C1\NC(=O)C(C)S1 (stereo not given)	1.2%	-2.7%	-5.3%	21.9%	4.4%	2.3%	-6.3%	15.3%
Cc1ccc2nc(-c3ccccc3)cc(C(=O)N3CCN(S(=O)(=O)c4c(C)noc4C)CC3)c2c1	4.1%	5.4%	·	-6.4%	·	·	-2.1%	?
COC(=O)c1ccccc1NC(=O)CN1CCC(n2nnc3cc(C)ccc32)CC1	2.5%	·	-23.0%	·	8.6%	2.2%	·	0.9%
O=C(O)c1cnn2c(C(F)F)cc(C(F)F)nc12	3.2%	-4.3%	-6.6%	?	-6.5%	-1.1%	0.8%	-3.1%
COCCN1C(=O)C(=O)/C(=C(/O)c2ccc(S(=O)(=O)N3CCOCC3)cc2)C1c1cccc(OC)c1 (stereo not given)	-8.4%	-0.9%	-4.7%	·	·	·	2.3%	·
COC(=O)c1ccc(NC(=O)CN(C)S(=O)(=O)c2ccc(Br)s2)cc1	·	·	·	-14.5%[46.1 µM]	1.4%	-7.2%	-7.8%	1.3%[46.1 µM]
CCc1cc(CNC(=O)C2CCC(=O)N(CCc3cccc(F)c3)C2)on1 (stereo not given)	-4.3%	-4.6%	2.0%	-0.2%	·	·	7.5%	0.1%
CC(C)CC(NS(=O)(=O)c1ccc2c(c1)oc(=O)n2C)C(=O)NCc1ccccc1Cl (stereo not given)	·	·	·	19.5%[46.1 µM]	-14.0%	-0.4%	8.9%	0.6%[46.1 µM]
CN(C)C(=N)c1n[nH]nc1SCc1ccc(Cl)c(Cl)c1	0.1%	-13.3%	5.9%	29.4%	·	·	2.5%	-29.7%
Cc1cccc(/C=N/NC(=O)c2cccc(Cl)c2)n1	0.3%	-24.9%	-5.4%	19.4%	·	·	13.9%	1.4%[46.1 µM]
Cc1ccc(Cl)cc1Nc1nn2c(=O)c3ccc(C(=O)NC4CCCCC4)cc3nc2s1	·	·	·	?	-11.3%	-1.2%	-27.4%	·
COCC(C)NS(=O)(=O)c1ccc(N2CCCCS2(=O)=O)cc1 (stereo not given)	·	·	·	7.9%[46.1 µM]	3.6%	0.0%	-9.7%	·
COc1cc(NC(=S)NC(=O)c2ccco2)ccc1NC(=O)C(C)C	-1.2%	-6.2%	3.3%	?	·	·	44.3%[activator]	24.3%[46.1 µM]
O=C(NCC1CCCO1)c1cccc(S(=O)(=O)N2CCOCC2)c1 (stereo not given)	36.2%	1.3%	1.8%	1.0%	·	·	-19.1%	-7.5%
CCc1cccc(NC(=O)CCc2nc(-c3cccs3)no2)c1	-23.2%	-20.7%	-82.3%	·	8.7%	-5.8%	-4.4%	·
COc1ccc(CCNc2cc(N3CCN(C(=O)c4ccccc4OC)CC3)ccc2[N+](=O)[O-])cc1OC	·	-8.2%	·	?	·	·	8.91µM*	?
CCCc1cc(=O)oc2cc(OCc3ccc(C(=O)O)cc3)ccc12	2.0%	15.7%	-57.5%	25.8%	·	·	54.8%[activator]	-2.0%
COc1ccc(S(=O)(=O)Nc2ccncc2)c(C)c1C	-1.0%	10.7%	·	-11.8%	·	·	60.6%[activator]	-3.5%[46.1 µM]
CCOC(=O)N1CCN(C(=O)C2c3cc(OC)c(OC)cc3C(=O)N3CCc4ccccc4C23)CC1 (stereo not given)	8.1%	-7.8%	-8.1%	-10.9%	?	5.5%	-19.5%	-2.9%
Cc1ccc(S(=O)(=O)C(C#N)c2nc3ccccc3nc2N2CC(C)OC(C)C2)cc1C (stereo not given)	1.8%	2.1%	12.7%	3.5%	?	-8.8%	?	-20.5%
Cc1ccc(S(=O)(=O)N2CCOCC2)cc1NC(=O)COC(=O)COc1cccc2c1OC(C)(C)C2	-0.4%	-3.6%	·	5.7%	·	·	-16.1%	5.8%[46.1 µM]
CN1CCN(c2nc3nonc3nc2N2CCN(C)CC2)CC1	1.8%	4.1%	-0.6%	-8.5%	2.5%	-7.4%	0.0%	?
O=C(Nc1cccc(OCC(=O)N2CCOCC2)c1)c1ccc(C(F)(F)F)cc1	-3.3%	-4.8%	-6.1%	9.8%	·	·	-13.4%	1.2%[46.1 µM]
Cc1[nH]n(-c2ccccc2)c(=O)c1/C=N/c1nn[nH]n1	-0.4%	-19.0%	7.7%	-10.1%	·	·	12.3%	-4.9%[46.1 µM]
COc1cccc(C2CC(c3ccccc3Cl)n3ncnc3N2)c1 (stereo not given)	-5.0%	-13.3%	-2.4%	-4.0%	-14.0%	0.2%	-14.5%	13.9%
c1ccc(-c2noc(C3CCCCC3)n2)nc1	3.4%	35.5µM*	2.0%	?	9.3%	2.3%	10.8%	-19.0%
Cc1ccc(-c2nnn(CC(=O)N(c3ccc4c(c3)OCCO4)C(C(=O)NCC3CCCO3)c3ccc(F)cc3)n2)o1 (stereo not given)	-6.6%	5.3%	·	-29.4%	·	·	16.4%	-25.0%[46.1 µM]
CCc1ccccc1N(C(=O)CNC(=O)c1ccco1)C(C(=O)NC1CCCC1)c1cccnc1 (stereo not given)	0.0%	-6.1%	3.0%	-3.1%	·	·	0.0%	-4.9%[46.1 µM]
COc1cc(C2=NOC(C(=O)N3CCN(c4ccc(F)cc4)CC3)C2)cc(OC)c1OC (stereo not given)	-0.2%	7.0%	-14.7%	-12.6%	?	0.0%	?	-11.1%
CC(=C\c1ccccc1)/C=C1/SC(=S)N(C(C(=O)O)C(C)C)C1=O (stereo not given)	-1.9%	10.7%	·	10.4%[46.1 µM]	·	·	-17.4%	-2.0%[46.1 µM]
CN(CC(=O)Nc1ccccc1Cl)C(=O)COC(=O)c1ccc(Cl)nc1	2.1%	7.4%	·	-1.2%[46.1 µM]	·	·	2.8%	0.1%
O=C(CSc1nc2c(c(=O)[nH]1)CCC2)Nc1cccc(O)c1	·	·	·	-1.6%[46.1 µM]	-21.8%	-6.0%	-16.0%	-24.2%[46.1 µM]
COc1ccccc1NS(=O)(=O)c1cccc(C(=O)N(C)Cc2cccs2)c1	3.1%	-0.2%	-3.2%	-2.5%	·	·	30.0%[activator]	0.7%
COC(=O)c1cc2oc3ccccc3c2n1Cc1nc(-c2ccc(OC)cc2)oc1C	·	·	·	·	-4.2%	0.8%	9.8%	-9.4%[46.1 µM]
CCCCSc1nc(C)c(CC(=O)OC)c(=O)[nH]1	3.4%	0.2%	4.3%	1.1%	6.9%	-4.8%	-9.4%	7.5%[46.1 µM]
Clc1ccc(-c2cn3nc4c(nc3n2)CCCC4)cc1	-7.1%	1.2%	-8.1%	0.708µM*	?	-5.4%	11.2µM*	?
